Bioassay records from PubChem BioAssay.
nsP2pro inh = Primary qHTS for inhibitors of NSP2Pro chikungunya virus (CHIKV); FRET peptide cleavage, nsP2pro, fluorescence 1 h; Potency, µM (titrated, usually from 24.9 µM), inactives show top-dose activity change, negative = inhibition, usual class: inhibitors; actives 1.1% (n = 31,000); active means well fitted inhibition curve with a large enough effect; inconclusive means small, poorly fitted or top-dose-only effect; inactive means no such curve, though single readings can be large or run the other way; also: nearly all actives have a fitted effect of over 60% in size; a reference inhibitor and vehicle were the controls
Active calls of the source: *; i = inactive; ? = inconclusive; & = joins results of further samples; [ ] = remark or other dose. % is scaled to controls: 0 for no effect and ±100 for the full control effect; potency is read from the fitted curve at half-maximal effect. Only part of the results is shown; the hit share may differ from the screen's.

SMILES	nsP2pro inh
NC(=O)C1CCN(c2nc(-c3cc4ccccc4o3)cs2)CC1	i
Cc1ccnc(NC(=O)C(C)c2cccc(C(=O)c3ccccc3)c2)c1 (stereo not drawn)	2%
N#Cc1cccc(OC2=NS(=O)(=O)c3ccccc32)c1	2%
CC12CCC(OC3OC(CO)C(O)C(O)C3OC3OC(CO)C(O)C(O)C3O)CC1CCC1C2CCC2(C)/C(=C3/COC(=O)C3)CCC12O (stereo not drawn)	?
CCOC(=O)c1ccc(NC(=O)Cn2c(=O)n(-c3ccc(C)cc3)c(=O)c3c2cnn3C)cc1	-13%
O=C(c1ccc(C#Cc2cccc(F)c2)cn1)N1CC2CC2C1 (stereo not drawn)	5%
CCCN(CCC)C(=O)c1c2c(nc3ccccc13)C(=O)N(C1CCCCC1)C2	-23%
CCOc1nc(-c2ccc(C)cc2)ccc1-c1noc(-c2ccccc2F)n1	-14%
COc1cccc(-c2ccc3ncnc(NCc4cccc(C)c4)c3c2)c1	i
COCCn1c(SCc2ccccc2F)nc2c([nH]c3ccccc32)c1=O	-33%
O=C(Cn1nc2c(cc1=O)CCCC2)N1CCOCC1	-3%
O=C(O)CC1CCC(c2ccc(-c3ccc4nc(C(=O)NCc5ccc(OC(F)(F)F)cc5)cn4c3)cc2)CC1 (stereo not drawn)	-8%
C[C@@H]1O[C@@H](O[C@H]2[C@H](OC(=O)[C@]34CCC(C)(C)C[C@H]3C3=CCC5[C@@]6(C)CC[C@H](O[C@@H]7O[C@H](C(=O)O)[C@@H](O)[C@H](O)[C@H]7O[C@@H]7O[C@H](CO)[C@H](O)[C@H](O)[C@H]7O)[C@@](C)(C=O)C6CC[C@@]5(C)[C@]3(C)C[C@H]4O)O[C@H](C)[C@H](O[C@@H]3O[C@H](C)[C@H](O)[C@H](O)[C@H]3O)[C@@H]2O)[C@H](O)[C@H](O)[C@H]1O[C@@H]1OC[C@@H](O)[C@H](O[C@@H]2O[C@H](CO)[C@@H](O)[C@H](O)[C@H]2O)[C@H]1O (stereo partly drawn)	-14%[2.68 µM]
COc1cccc(N2CCN(C(=O)Cn3cnc4onc(-c5ccc(F)cc5)c4c3=O)CC2)c1	-12%
COc1cc(C2NC(=O)c3c(sc4c3CCN(C)C4)N2)cc(Br)c1OC(=O)c1ccc(C)cc1 (stereo not drawn)	-1%
CC(c1cc2ccccc2s1)N(O)C(N)=O (stereo not drawn)	-33%&1%
CCCCNC(=O)CSc1nc2n[nH]c(C)c2c(=N)n1-c1cccc(C)c1	-12%
O=C(CSc1nc(-c2cccs2)nc2cc(=O)[nH]n12)Nc1ccccc1F	0%
Nc1ccccc1NC(=O)c1ccc(CNc2nccc(-c3cccnc3)n2)cc1	-7%&-1%&19%
COCCNC(=O)[C@H]1C[C@H](Oc2cccnc2)CN1S(=O)(=O)c1cn(C)cn1	i
CC(=O)Nc1nonc1-c1nnc(SCC(=O)Nc2ccc(C)cc2C)n1C	-22%
Cc1cccc(Cn2nc(C3CCCNC3)n(-c3ccccc3)c2=O)c1 (stereo not drawn)	i
O=C1CCc2ccc(OCCCCN3CCN(c4cccc(Cl)c4Cl)CC3)cc2N1	-8%
COc1ccc(C)cc1NC(=O)c1c(C)oc2ncn(CC(C)C)c(=O)c12	-11%
NCCC(=O)N1CCCC(N2CCN(c3ccccc3F)CC2)C1 (stereo not drawn)	i
COc1ccc(CN2Cc3[nH]nc(-c4cnc(OC)nc4)c3CC2=O)cc1	2%[39.2 µM]
COC(=O)c1cc(Br)cnc1N1CCC(NC2CCCCC2)C(O)C1 (stereo not drawn)	-8%
O=C(NCCc1cccs1)c1ccc(Cn2c(SCc3ccccc3)nc3cccnc32)cc1	23%
CCCn1c(C)nc2c(NC3CCN(Cc4ccccc4)C3)nc(C)nc21 (stereo not drawn)	-10%
C[C@@H](O)[C@H]1C(=O)N2C(C(=O)O)=C(S[C@@H]3CN[C@H](C(=O)Nc4cccc(C(=O)O)c4)C3)[C@H](C)[C@H]12	108%[activator]

An excerpt of these results, with bars between the fields:
canonical_smiles | nsP2pro inh
CC(=O)Nc1nonc1-c1nnc(SCC(=O)Nc2ccc(C)cc2C)n1C | -22%
Cc1cccc(Cn2nc(C3CCCNC3)n(-c3ccccc3)c2=O)c1 (stereo not drawn) | i

Following part
SMILES	nsP2pro inh
CC(C)C(=O)N1CCC2(CCC(=O)N(CC3CC3)CC2)CC1	-6%
C/C=C/C=C/C=C/C(=O)O[C@@H]1C=C(CO)[C@](O)(CO)[C@@]2(C)CCCC(C)(C)[C@H]12	-19%
CC(=O)[C@H]1CC[C@H]2[C@@H]3C=CC4=CC(=O)CC[C@@]4(C)[C@@H]3CC[C@]12C	-9%&9%
COc1ccc(-c2nc(C)c(CCNC(=O)Cc3ccc(F)cc3)s2)cc1OC	-12%
O=C(NCC1CC1)c1nc2c(o1)CCN(CCc1ccccc1)CC2	-10%[39.2 µM]
Cc1noc2c(N3CC[S+](=O)([O-])CC3)cc(-c3cccnc3)nc12	-2%[39.2 µM]
CCOc1ccc(-c2cn3c(n2)sc2cc(C(=O)NC(C)C45CC6CC(CC(C6)C4)C5)ccc23)cc1 (stereo not drawn)	-20%
C[N+]1(C)[C@@H]2CC(OC(=O)[C@H](CO)c3ccccc3)C[C@H]1[C@@H]1O[C@@H]12 (stereo partly drawn)	3%
N[C@H](Cc1cnc[nH]1)C(=O)O	?
CC(C)NCC(O)c1ccc(NS(C)(=O)=O)cc1 (stereo not drawn)	-5%
Cc1ccsc1CN(C)c1ncnc2ccc(-c3ccc(CO)o3)cc12	10µM*
CC(=O)N1c2ccc(S(=O)(=O)Nc3ccc(C)c(C)c3)cc2CC1C (stereo not drawn)	4%
CC1(C)CC(NC(=O)C(=O)Nc2ccc(Br)cc2)CC(C)(C)N1	-5%
Cc1nccn1CCCC(=O)N1CC[C@](C)(O)[C@H](C)C1	-14%
O=C(c1ccon1)N1CCN(Cc2cnn3cccnc23)CC(O)C1 (stereo not drawn)	4%
O=C1NS(=O)(=O)c2cc(Cl)ccc21	2%
C[C@@H]1CN(S(=O)(=O)c2c(F)cccc2F)CCN1S(=O)(=O)c1ccc2c(c1)OCCO2	-6%
COc1ccc(OC)c(CCNC(=O)C2CCN(c3ncnc4c3nc3n4CCCCC3)CC2)c1	-4%
COC(=O)C(CCSC)NC(=O)c1cc2c(n(-c3ccc(Cl)cc3)c1=O)CCCC2=O (stereo not drawn)	-10%
CC(C)(C)CNc1nc(C#N)nc(Nc2ccccc2)n1	-1%
O=C(NC1CC1)[C@@H]1CN(CCCc2ccccc2)C[C@H]1CO	-15%
COc1ccc(NC(=O)c2c(C)nc3n2CCC(Nc2ccccc2C)C3)cn1 (stereo not drawn)	-11%[39.2 µM]
COc1ccc(NC(=O)c2c(NC(=O)COc3ccc(Cl)cc3)sc3c2CCCCC3)cc1	?
CCN1CCN(C2(C(=O)NCCC3CCCCO3)Cc3ccccc3C2)CC1 (stereo not drawn)	i
Cc1oc(-c2ccccc2Cl)nc1Cn1c(SCc2cccc(F)c2)nc2cccnc21	18%
O=C(NC1CCCCC1)[C@@H]1C[C@@H](O)CN1C1CCN(C(=O)c2ccccc2F)CC1	-21%
Cc1cc(C(=O)NC2CC(C)(C)Cc3nc(N4CCOCC4)ncc32)nn1C (stereo not drawn)	-2%
CN1CCN(c2nc3c(c(=O)[nH]2)CCN(Cc2cccnc2)CC3)CC1	i
CC(=O)N1CC2(CCN(C(=O)NCc3ccccc3)CC2)CC1C(=O)O (stereo not drawn)	3%
CC(=O)N1CCC(NCc2cccnc2Oc2ccccc2C)CC1	i
O=[N+]([O-])c1cn2c(n1)OC[C@@H](OCc1ccc(-c3ccc(OC(F)(F)F)cc3)nc1)C2	-8%
COc1ccc(CCNC(=O)CCCCCn2c(SCC(N)=O)nc3cc4c(cc3c2=O)OCO4)cc1OC	-8%
CCC(C(=O)NC(=O)NC(C)=O)c1ccccc1 (stereo not drawn)	11%
CN1C[C@H](O)C[C@H]1c1nnc2n1CCN(S(=O)(=O)c1ccccc1)CC2	-8%
CC1=C(C(=O)O)/C(=C/CO[C@@H]2O[C@H](COC(=O)/C=C/c3ccc(O)cc3)[C@@H](O)[C@H](O)[C@H]2O)C(O)C1 (stereo partly drawn)	128%[activator][10 µM]
C[C@@](Cc1ccc(O)c(O)c1)(NN)C(=O)O	11µM*
C=C(C)c1cc2c(s1)c1cnn(Cc3ccccc3F)c(=O)c1n2C	-2%
C[N+](C)(C)CCOC(N)=O	-9%
O=C(CN1C(=O)C2(CCCCC2)C1c1ccccc1)NCCc1c[nH]c2ccccc12 (stereo not drawn)	-13%
CCCOc1nccnc1NC1CCN(C(=O)c2cccnc2)CC1	i

A portion of the results above:
SMILES	nsP2pro inh
CN1C[C@H](O)C[C@H]1c1nnc2n1CCN(S(=O)(=O)c1ccccc1)CC2	-8%
CC1=C(C(=O)O)/C(=C/CO[C@@H]2O[C@H](COC(=O)/C=C/c3ccc(O)cc3)[C@@H](O)[C@H](O)[C@H]2O)C(O)C1 (stereo partly drawn)	128%[activator][10 µM]
C[C@@](Cc1ccc(O)c(O)c1)(NN)C(=O)O	11µM*
C=C(C)c1cc2c(s1)c1cnn(Cc3ccccc3F)c(=O)c1n2C	-2%
C[N+](C)(C)CCOC(N)=O	-9%
O=C(CN1C(=O)C2(CCCCC2)C1c1ccccc1)NCCc1c[nH]c2ccccc12 (stereo not drawn)	-13%
CCCOc1nccnc1NC1CCN(C(=O)c2cccnc2)CC1	i

(next part)
SMILES	nsP2pro inh
C=C(C(=O)O)C1CCC2(C)CCCC(C)(O)C2C1 (stereo not drawn)	24%
CCOC(=O)N1CCC(Oc2cnc3c(ccn3-c3cncnc3)c2)CC1	0%[39.2 µM]
Cc1ccsc1C(=O)NC1CCN(c2cc(-c3ccc(F)cc3)[nH]n2)C1 (stereo not drawn)	i
COc1ccc(OC)c(CNc2ncnc3onc(-c4ccc(Cl)cc4)c23)c1	-27%
CC(=O)OCC1(O)CCC2C(COC3OC(CO)C(O)C(O)C3OC(=O)/C=C/c3ccc(O)cc3)=COC(OC(=O)CC(C)C)C21 (stereo not drawn)	67%[activator][10 µM]
CN(Cc1cc(C[C@@H]2C[C@H](NS(C)(=O)=O)C2(C)C)no1)c1ccccc1	-8%[39.2 µM]
O=C(CCn1ccn2nc3c(c2c1=O)CCCC3)NCc1ccc(F)c(Cl)c1	i
Cc1ccc(NC(=O)CCc2c(C)nc3nc(C)nn3c2C)c(Cl)c1	-23%
CCOCCCNC(=O)C(=O)Nc1c2c(nn1-c1ccccc1)CSC2	3%
CN1CCN(CC(=O)N2c3ccccc3C(=O)Nc3cccnc32)CC1	-4%[2.68 µM]
O=C1OC(c2ccc(O)c(S(=O)(=O)O)c2)(c2ccc(O)c(S(=O)(=O)O)c2)c2c(Br)c(Br)c(Br)c(Br)c21	?
COC(=O)[C@]12C(=O)C(C)=C(O)[C@@]1(C)C(C)=CC1[C@@]34CC[C@@H](OC(C)=O)C(C)(C)C3[C@H](C[C@]12C)OC4=O (stereo partly drawn)	-12%[10 µM]
Cn1cc(C[C@H](C(=O)O)N2C(=O)c3ccc(C(=O)O)cc3C2=O)c2ccccc21	4%
CCOc1ccc(CN(CCOC)C(=O)C2CC3(CCNCC3)CN2)cc1 (stereo not drawn)	i
CCOC(=O)C=C[C@H](C[C@@H]1CCNC1=O)NC(=O)[C@@H](CC(=O)[C@@H](NC(=O)c1cc(C)on1)C(C)C)Cc1ccc(F)cc1	-4%
CC(=O)OC1C(O)CC2(C)C(CCC3(C)C2CC=C2C4C5(CCC(CO[C@@H]6O[C@H](CO)[C@@H](O)[C@H](O)[C@H]6O)(OC5=O)C4(C)O)C(O)CC23C)C1(C)C (stereo partly drawn)	72%[activator][10 µM]
COCCCn1c(C)cnc1CC1CCN(C(=O)C2CCCCC2)CC1	i
COC(=O)[C@H](Cc1ccc([N+](=O)[O-])cc1)NC(=O)c1cccc2ccccc12	?
COc1cc(/C=C/C(=O)O[C@@H]2O[C@H](CO)[C@@H](O)[C@H](O)[C@H]2O)ccc1O	99%[activator]
COc1ccc(CNC(=O)c2cc(C3CC3)nc3c2c(C)nn3-c2cccc(Cl)c2C)cc1	-21%
CCN(CC)C(=O)CSc1nc2cc3c(cc2c(=O)n1CCCCCC(=O)NCc1ccc(OC)cc1)OCO3	-12%
Cc1cc(-n2c(C)nc3ccccc3c2=O)ccc1NC(=O)c1ccc([N+](=O)[O-])cc1	-23%
N#Cc1nc(Nc2cccc(Br)c2)nc(NC2CCCC2)n1	i
CCn1c(=O)n(CC)c2cc(N3CCCCC3)c(NC(=O)Nc3ccccc3C(F)(F)F)cc21	-6%
Cc1ccc(-c2nc(CNS(=O)(=O)C3CC3)[nH]c2-c2ccccn2)cc1	i
CCOc1ccc(CNC(=O)c2ccc3nc(CC)c(CC)nc3c2)cc1OC	-2%
C/C=C(/C)C(=O)O[C@@H]1C[C@@H](OC(=O)CC(C)C)C2(C)C3C(=O)C=C(C)C2C3C1(C)C (stereo partly drawn)	?
c1ccc(CN2CCNc3cnc(Nc4ccc(N5CCOCC5)cc4)cc3C2)cc1	i
CC1(C)C[C@H]1C(=O)N/C(=C\CCCCSC[C@@H](N)C(=O)O)C(=O)O	-2%
COc1ccc(C2CC(=O)N3CN(C4CCCCC4)CSC3=C2C#N)cc1 (stereo not drawn)	-11%
